# GALR2 ag: agonists of human galanin receptor 2 (GALR2) | GALR2-expressing cells, agonist activation read-out | O43603 | activation, %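 (tested at 5 µM)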 | 140,000 tested, 0.48% active;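 active = above mean plus 3 SD of all compounds, about 5% in these data, not always enough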;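 also: 0% = vehicle buffer wells and 100% = reference agonist at full effect; tested in CHO reporter cells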
# RGS16-Gao: RGS16-Galphao interaction regulator (human); 220,000 tested, 0.38% active; AID 1441; bead-based flow cytometry RGS16-Galphao binding, fluorescence; actives lie on both sides; binding response (% of control), % at 10 µM;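 active = below 25% or above 175%, edge rows of some plates excepted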;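 also: Galphao activated by GDP with aluminum fluoride before binding; 100% = wells without compound and 0% = beads without RGS; some results beyond the cut were filed as inactive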
# PKD1 inh: blocks activity of human protein kinase D1; PKD1 kinase fluorescence polarization assay; Q15139; 200,000 tested, 0.056% active; inhibition, %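 (about 10 µM by stock and volumes)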; AID 797;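 active = inhibition of 50% or more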;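 also: controls were vehicle for no effect and a reference inhibitor for full effect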
# Target sequence (Q15139 whole entry, looked up): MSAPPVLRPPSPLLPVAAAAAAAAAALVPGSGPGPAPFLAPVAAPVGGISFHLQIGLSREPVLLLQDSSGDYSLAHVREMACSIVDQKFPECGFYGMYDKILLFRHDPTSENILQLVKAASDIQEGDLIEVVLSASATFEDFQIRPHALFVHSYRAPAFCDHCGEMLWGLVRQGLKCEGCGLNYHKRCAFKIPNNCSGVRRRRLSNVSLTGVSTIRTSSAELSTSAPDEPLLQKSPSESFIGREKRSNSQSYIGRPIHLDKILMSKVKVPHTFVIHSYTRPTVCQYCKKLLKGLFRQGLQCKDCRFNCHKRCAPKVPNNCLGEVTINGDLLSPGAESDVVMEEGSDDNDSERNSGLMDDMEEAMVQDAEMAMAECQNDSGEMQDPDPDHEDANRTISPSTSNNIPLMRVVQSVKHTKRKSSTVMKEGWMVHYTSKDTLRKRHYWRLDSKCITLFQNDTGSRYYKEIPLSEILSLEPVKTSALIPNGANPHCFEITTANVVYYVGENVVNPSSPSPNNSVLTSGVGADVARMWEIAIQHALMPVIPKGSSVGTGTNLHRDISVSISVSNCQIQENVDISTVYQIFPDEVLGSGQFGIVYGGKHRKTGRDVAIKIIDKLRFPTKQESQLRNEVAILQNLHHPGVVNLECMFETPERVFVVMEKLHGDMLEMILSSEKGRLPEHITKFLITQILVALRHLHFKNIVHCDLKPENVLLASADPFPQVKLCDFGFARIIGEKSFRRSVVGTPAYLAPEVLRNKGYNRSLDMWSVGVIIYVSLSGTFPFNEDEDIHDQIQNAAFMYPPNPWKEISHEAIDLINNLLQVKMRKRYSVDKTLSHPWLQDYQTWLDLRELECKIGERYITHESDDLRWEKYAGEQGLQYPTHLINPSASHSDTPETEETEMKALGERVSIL
# HSV augment: increases HSV replication in cells; maximum fold increase; HSV replication augmentation in cells, fold increase; AID 1956; 220,000 tested, 0.005% active;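 active = peak rise of 1.5-fold or more in the series; inconclusive = self-fluorescent or not available for retest; tested in PC3 cells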;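 also: first round at 10 µM; read as green reporter fluorescence; hits show the peak of a series up to 25 µM; 1 = signal of infected wells without compound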
# INS promoter inh: TRM-6 insulin promoter activity inhibition | TRM-6 cells (human fetal islet line), insulin promoter-eGFP reporter, imaging; reporter expression induced with tamoxifen | inhibition, % at 2 µM | 130,000 tested, 0.9% active | AID 1273;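 active = inhibition above the mean plus 3 SD, with well images judged a real hit on visual review, cut at about 60% in these data, passing the limit was not always enough; inconclusive = inhibition over the cutoff but images rejected on review; inactive = inhibition not above the cutoff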
# INS promoter inh cell count: recorded beside INS promoter inh, whose call it bears; normalized cell count, %; measured here: cell count, toxicity; reference of the scale not given here;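 cells exposed to compound for 48 h; stained nuclei by imaging scaled within each plate; lower means fewer cells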
# HSV augment primary fold: second read-out of HSV augment, no call of its own (marks repeat the call); fold increase; compound at 10 µM; measured here: primary screen fold increase 10 uM; tested in PC3 cells;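 GFP signal in the first replicate; 1 = infected wells without compound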
# Numbers without * were called inactive; i = inactive; ? = inconclusive; nt = not tested or not shown.
compound,GALR2 ag,RGS16-Gao,PKD1 inh,HSV augment,HSV augment primary fold,INS promoter inh,INS promoter inh cell count
CC(=O)c1ccc(NC(=O)c2cccs2)cc1,-2.0,96,6,i,1.3,3,180
COc1ccc(OC)c2[nH]c(=O)c(CCNS(=O)(=O)c3ccccc3)cc12,0.1,100,-5,nt,nt,45,89
CCCNC(=S)NCc1ccc(Cl)cc1,-0.1,101,4,i,0.9,nt,nt
COc1ccc(C(=S)NCS(=O)(=O)c2ccc(C)cc2)cc1,-0.2,102,2,i,0.91,-8,130
Cc1cc(C)nc(N2CCCC(C(=O)NCc3ccccc3)C2)n1 (configuration not stated),-0.8,108,-5,i,1,-281,26
COc1cc2nc(SCc3ccc(F)cc3)n(Cc3cccs3)c(=N)c2cc1OC,-0.6,77,-2,i,0.75,4,112
O=c1cc(/C=C/c2cccs2)[nH]c2ccccc12,-1.2,100,0,i,0.96,0,45
CCC1=NC(c2ccc(OC)c(OC)c2)N(O)C1(C)C (configuration not stated),-0.3,111,8,i,1,-8,123
O=C1CC(c2ccco2)Cc2nc(NCC3CCCO3)ncc21 (configuration not stated),-0.3,109,-6,i,1,nt,nt
C=CCOc1ccc(C2N3CC4(C)CN2CC(CCC)(C3)C4=O)cc1 (configuration not stated),-0.4,98,6,i,1,nt,nt
COc1cccc(CNC(=O)C23CN(Cc4ccccc4)CC2C(c2ccc([N+](=O)[O-])cc2)=NO3)c1 (configuration not stated),-4.4,73,-18,i,1.2,-27,193
Cc1nn(C)cc1C1C(C#N)=C(N)N(c2cccnc2)C2=C1C(=O)CCC2 (configuration not stated),-2.0,108,-5,i,1.1,nt,nt
Cc1c(C(=O)O)sc2nc(CSc3nnc(-c4ccc(F)cc4)n3C)[nH]c(=O)c12,nt,98,-7,i,1.1,nt,nt
O=C(c1c(F)cccc1F)N1CCC(n2nnc3cc(C(F)(F)F)ccc32)CC1,nt,84,2,i,0.98,nt,nt
CN(CC(=O)c1c(N)n(C)c(=O)n(C)c1=O)c1ccccc1,nt,106,-1,i,0.99,15,130
CCC(C)NC(=S)Nc1ccc(C(=O)OC)cc1 (configuration not stated),nt,99,-3,i,1,nt,nt
CC(C)Cc1cc(C(=O)O)n[nH]1,-0.6,101,-3,i,1.1,28,122
O=C(Cc1ccc(S(=O)(=O)N2CCOCC2)s1)Nc1ccc2c(c1)CCC2,-1.8,86,-8,i,1.1,-6,58
COc1ccc(/C=N/NC(=O)c2ccn[nH]2)cc1COc1ccc(F)cc1,-1.4,80,2,i,0.92,nt,nt
Cc1nc2ccc(NC(=O)N(C)c3ccccc3)cc2s1,0.1,105,-2,i,1,nt,nt
CN(C)c1ccc(/C=N/NC(=O)c2ccc3nc[nH]c3c2)cc1,nt,99,nt,i,0.97,nt,nt
Cc1nc(CNC(=O)c2cc(COc3ccc(F)cc3Cl)on2)cs1,nt,105,-3,i,1.1,nt,nt
CN(C)S(=O)(=O)N1CCN(c2ccc([N+](=O)[O-])c(NC3CC3)c2)CC1,nt,99,-6,i,0.8,nt,nt
CCn1c(CNc2nc(-c3ccccc3)cs2)nnc1SCC(=O)NCc1ccccc1,-2.6,102,4,i,1.1,14,110
COc1ccccc1CC(=O)NNC(=O)c1cccs1,nt,104,-6,i,0.9,nt,nt
CCCN(CCC)C(=O)Cn1c(=O)n(CCCCCC(=O)Nc2ccccc2)c(=O)c2sccc21,-0.8,112,1,nt,nt,nt,nt
Cc1ccc(C(=O)N2CCC3(CC2)Oc2ccc(F)cc2C(=O)C32CC(c3cccnc3)=NO2)s1 (configuration not stated),nt,93,nt,i,0.78,nt,nt
CC(=O)c1cc(NC(=O)c2ccc(C)cc2)c(=O)oc1/C=C/N(C)C,-2.6,96,-12,?,nt,6,113
CC(C)OC(=O)CSc1nnc(-c2ccc(O)cc2)n1Cc1ccccc1,-3.1,99,-6,i,0.99,3,60
CCC(C)NC(=O)c1ccccc1NC(=O)COc1ccc(OC)cc1 (configuration not stated),-2.0,92,-1,nt,nt,79*,21*
Cc1ccc(-n2nc(C)c(NC(=O)CCl)c2C)cc1C,0.7,102,-5,i,0.75,-479,9
COc1cc(OC)cc(-c2nnc(SCC(=O)Nc3cccc(C(=O)O)c3)s2)c1,nt,104,-6,i,1,58,121
Cc1sc2nc(SCc3nnc(-c4cccs4)o3)n(C3CCCC3)c(=O)c2c1C,-1.4,108,-6,i,0.86,nt,nt
NS(=O)(=O)c1ccc(CCNC(=O)NC23CC4CC(CC(C4)C2)C3)cc1,nt,101,-2,i,1.2,35,119
COC(=O)c1sccc1NC(=S)Nc1cc(OC)ccc1OC,nt,95,-6,i,0.91,-9,100
Cc1ccc(SCc2[nH]nc3c2C(c2cccnc2)C(C#N)=C(N)O3)cc1 (configuration not stated),-0.9,87,-1,i,0.94,-9,92
O=C(NN1C(=O)C2C3C=CC(C3)C2C1=O)c1ccccc1 (configuration not stated),nt,107,-2,i,0.97,nt,nt
O=[N+]([O-])c1cc(Br)cc(C=Nc2ccc3c(c2)OCO3)c1O,nt,89,nt,i,1.1,nt,nt
CCc1ccc(NC(=O)CC2C(=O)N(c3cccc(C)c3)C(=O)N2C2CC2)cc1 (configuration not stated),nt,97,-8,i,0.98,nt,nt
CCn1c(-c2cccn(Cc3ccccc3)c2=O)n[nH]c1=S,nt,115,-5,i,1,0,115
Cc1cc(C)nc(-n2nc(C)cc2NC(=O)C(C)C)n1,nt,100,3,i,0.97,nt,nt
O=C(CCc1ccc(O)cc1)NNC(=S)NCCc1ccccc1,nt,99,nt,i,1.1,nt,nt
CCOc1ccc(N2C(=O)CS/C2=C(\C(Cl)=C(Cl)Cl)[N+](=O)[O-])cc1,-1.3,10,2,i,1.2,-84,69
Cc1ccccc1-c1nc(CS(=O)(=O)CC(=O)NCCN2CCOCC2)c(C)o1,-0.8,104,-6,i,0.99,-60,103
CNC(=O)Nc1cccc(-c2cc(-c3c(Cl)cccc3Cl)no2)c1,nt,99,nt,i,1,nt,nt
CC(C)OC(=O)CC1C(=O)NCCN1C(=S)NC(=O)c1ccc(F)cc1 (configuration not stated),nt,112,2,i,1.1,nt,nt
Cc1cc2c(c(=O)o1)C1(C(=O)N(C)c3ccccc31)C(C#N)=C(N)O2 (configuration not stated),-1.1,100,1,i,0.81,-6,111
Cc1occc1C(=O)O/N=C(\N)c1ccccc1,nt,92,nt,i,1.1,nt,nt
O=C(CN1CCN(S(=O)(=O)c2ccccc2)CC1)Nc1ccc(N2CCOCC2)cc1,-0.5,106,-17,i,0.9,3,108
O=C(c1cc2ccccc2o1)n1nnc2ccccc21,0.1,100,1,i,0.94,nt,nt
COc1ccccc1NC(=S)c1ccccc1,-1.9,99,-4,i,1.1,nt,nt
O=C(NC1CCCC1)C1CCN(C(=O)NCc2ccccc2)CC1,nt,101,-2,i,1,nt,nt
OCCNCCSc1nc(C2CCCCC2)n(-c2ccccc2Cl)n1,nt,98,nt,i,0.99,nt,nt
COCCNCc1ccc(Cl)cc1Cl,nt,97,-2,i,0.92,-33,103
CCn1c(C)cc(C)c(C#N)c1=O,nt,100,-9,i,1,-80,102
CSc1cccc(NC(=S)N(CCN(C)C)C(C)c2ccccn2)c1 (configuration not stated),nt,108,-7,i,0.86,-57,96
COCCNC(=O)CSc1nnc(-c2ccc(C)cc2)c(-c2ccc(C)cc2)n1,nt,98,-2,i,0.96,nt,nt
O=c1nc(-c2ccccc2)n(-c2ccccc2)[nH]1,-3.0,43,-4,i,0.96,-20,98
c1ccc(CC2CCN(c3nc(N4CCOCC4)nc(N4CCOCC4)n3)CC2)cc1,0.1,nt,10,nt,nt,-10,119
CCOc1ccccc1NC(=O)CSc1ccccc1,-0.3,101,-9,i,0.83,nt,nt

# Only PKD1 inh and RGS16-Gao, for some of the entries so far:
structure	PKD1 inh	RGS16-Gao
O=C(c1cc2ccccc2o1)n1nnc2ccccc21	1	100
COc1ccccc1NC(=S)c1ccccc1	-4	99

# (more compounds)
compound,GALR2 ag,RGS16-Gao,PKD1 inh,HSV augment,HSV augment primary fold,INS promoter inh,INS promoter inh cell count
CNc1ccc(Cl)nn1,nt,95,-5,i,1,nt,nt
CN1CCN(CC(=O)Nc2cc(N(C)C)nc3ccccc23)CC1,nt,104,-7,i,1,nt,nt
COC(=O)c1c(N2C(=O)Nc3ccccc3N2O)sc2c1CCCC2,-0.6,110,7,i,0.86,69*,166*
Cc1ccccc1N1CC2=C(C1=O)C(c1ccccc1)NC(=O)N2C (configuration not stated),nt,93,nt,i,0.85,nt,nt
COc1ccc(-n2c(C)csc2=S)cc1,-3.5,92,1,i,0.89,38,110
Cc1ccc2cc(CCNC(=O)c3ccc(Br)o3)c(=O)[nH]c2c1,-1.2,98,-11,nt,nt,-127,50
CCOCCn1c(CN2CCc3ccccc3C2)nc2c1c(=O)n(C)c(=O)n2C,nt,94,nt,i,0.99,nt,nt
COc1ccc(-c2csc(N3C(=O)C4C5c6ccccc6C(c6ccccc65)[C@@H]4C3=O)n2)cc1 (some centres not stated),0.6,71,0,i,0.89,-40,120
CCN1CCN(C(=O)c2cc(COc3ccc4ncccc4c3)on2)CC1,nt,101,-1,i,0.99,nt,nt
c1ccc(-c2nc(-c3nccc4ccccc34)oc2-c2ccccc2)cc1,nt,106,nt,i,1,nt,nt
Cc1noc(C)c1COC(=O)CCCOc1ccc(Cl)cc1Cl,-1.2,109,-2,i,0.97,12,71
O=C(CN1CCN(S(=O)(=O)c2ccc3ccccc3c2)CC1)N1CCc2ccccc2C1,-3.9,101,0,i,1.1,0,70

# Entries listed so far that have a Cl atom (9):
compound,GALR2 ag,RGS16-Gao,PKD1 inh,HSV augment,HSV augment primary fold,INS promoter inh,INS promoter inh cell count
CCCNC(=S)NCc1ccc(Cl)cc1,-0.1,101,4,i,0.9,nt,nt
Cc1nc(CNC(=O)c2cc(COc3ccc(F)cc3Cl)on2)cs1,nt,105,-3,i,1.1,nt,nt
Cc1ccc(-n2nc(C)c(NC(=O)CCl)c2C)cc1C,0.7,102,-5,i,0.75,-479,9
CCOc1ccc(N2C(=O)CS/C2=C(\C(Cl)=C(Cl)Cl)[N+](=O)[O-])cc1,-1.3,10,2,i,1.2,-84,69
CNC(=O)Nc1cccc(-c2cc(-c3c(Cl)cccc3Cl)no2)c1,nt,99,nt,i,1,nt,nt
OCCNCCSc1nc(C2CCCCC2)n(-c2ccccc2Cl)n1,nt,98,nt,i,0.99,nt,nt
COCCNCc1ccc(Cl)cc1Cl,nt,97,-2,i,0.92,-33,103
CNc1ccc(Cl)nn1,nt,95,-5,i,1,nt,nt
Cc1noc(C)c1COC(=O)CCCOc1ccc(Cl)cc1Cl,-1.2,109,-2,i,0.97,12,71

# The order is random, and some 1.3% of all compounds hit somewhere here.
